Sfp inh – blocks B. subtilis Sfp PPTase activity | Q9F4F7 | Biochemical Sfp PPTase activity, qHTS | Potency, µM, for inactives: max response, negative = inhibition, usual class: inhibitors | actives 3.5% (n = 310,000); active = well fitted inhibition curve with a large enough effect; inconclusive = small, poorly fitted or top-dose-only effect, or another doubt; inactive = no such curve, though single readings can be large or run the other way;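 also: the enzyme is Sfp with the accession as filed and its product quenches rhodamine fluorescence; potency is read from the fitted curve at half-maximal effect; 0% = enzyme reaction without inhibitor and -100% = no enzyme wells; top concentration of the series not given in the record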
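Fluorescence-quenching assay with 15 nM Sfp, 5 uM rhodamine-CoA and 12.5 uM BHQ-2-labelled ybbR peptide in pH 7.6 Hepes/MgCl2 buffer. Enzyme was pre-incubated with compound for 15 min at room temperature. Rate was taken from the 30-min fluorescence change (525/598 nm).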
TRPV1 PAM – enhances activation of the human vanilloid receptor TRPV1; Q8NER1; TRPV1-expressing cells, Fluo-8 calcium influx, capsaicin EC20 potentiation; host cell line not named in the record; control for the full effect not named in the record; potentiation, % at 8.33 µM; actives 0.02% (n = 320,000); AID 540277; active means potentiation above 80%; inconclusive means 30% to 80%; inactive means below 30%; also: 0% is about no effect
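TRPV1-expressing cells were cultured overnight at 35.5C and loaded with Fluo-8 calcium dye for 40 to 90 min at room temperature. After a 10 s baseline, compound was added and calcium influx was read kinetically for 3 min (ex 480/em 520 nm).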
Menin-MLL FL inh – menin-MLL binding inhibition, fluorescein peptide; Fluorescence polarization, fluorescein-MLL peptide displacement from menin; FP activity change, % at 61.4 µM; 290,000 tested, under 10 active; AID 1766; inconclusive = falling polarisation curve, or a change in total fluorescence; inactive = total fluorescence flat and polarisation flat or rising; no compound was filed as active; the % refers to the polarisation; negative = inhibition;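 also: % of control where 0% means no effect; inhibitors lower the polarisation; unlabelled MLL peptide was the positive control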
TRPML1 ag – activates the human TRPML1 channel. Q9GZU1. TRPML1-expressing cells, Ca2+ dye fluorescence, FDSS; host cell line not named in the record; reference of the full effect not given here. activation, % (test concentration not listed). actives 0.12% (n = 410,000); in the data active = activation above about 50%; inconclusive = about 30% to 50%; inactive = below about 30%; also: 0% is about no effect; the text of the record puts the active cut at 80%
Target sequence (Q9GZU1 whole entry, looked up): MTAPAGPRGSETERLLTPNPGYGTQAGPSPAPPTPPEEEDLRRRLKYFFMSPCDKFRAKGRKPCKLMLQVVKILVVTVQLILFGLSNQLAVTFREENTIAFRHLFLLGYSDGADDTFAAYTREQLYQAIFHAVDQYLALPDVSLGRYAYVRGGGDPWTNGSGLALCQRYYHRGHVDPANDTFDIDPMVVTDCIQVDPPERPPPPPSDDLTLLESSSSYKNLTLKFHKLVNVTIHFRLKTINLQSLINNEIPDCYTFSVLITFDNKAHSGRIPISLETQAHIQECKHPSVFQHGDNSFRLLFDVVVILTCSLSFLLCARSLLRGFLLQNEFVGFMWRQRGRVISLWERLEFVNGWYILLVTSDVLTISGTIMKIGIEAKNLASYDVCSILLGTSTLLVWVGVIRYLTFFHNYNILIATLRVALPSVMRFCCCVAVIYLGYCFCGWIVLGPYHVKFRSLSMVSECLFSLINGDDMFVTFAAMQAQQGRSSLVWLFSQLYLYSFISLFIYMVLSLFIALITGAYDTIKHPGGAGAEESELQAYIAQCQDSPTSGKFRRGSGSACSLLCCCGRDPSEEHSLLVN
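In this qHTS format, compounds were pin-transferred onto Ca8-dye-loaded TRPML1-DL cells induced with Tet overnight, and intracellular Ca2+ fluorescence was recorded kinetically for 110 s after a 10 s baseline. A subsequent 4uM final 54-4 (EC80) addition followed by a second 110 s read served as the antagonist phase.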
PINK1 modulator – changes PINK1 expression | PINK1 immunofluorescence, high-content cytometry, 24 h | Potency, µM (top dose mostly 76.6 µM), for the others: at the top dose activation (PINK1 increase), most hits filed as activators | actives 0.2% (n = 410,000); active = well fitted activation curve with a large enough effect; inconclusive = small, poorly fitted or top-dose-only effect; inactive = flat fitted curve, though single readings scatter; cell line not stated here;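 also: potency is read from the fitted curve at half-maximal effect; % of control where 0% means no effect; nearly all actives have a fitted effect of over 65% in size; a mitochondrial uncoupler was the plate control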
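Stable cell line treated 24 h with compounds at 5 concentrations (CCCP controls), then fixed and immunostained for PINK1 plus nuclear and cell stains; PINK1 immunofluorescence quantified by laser-scanning microplate cytometry.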
TRPML1 blocker – inhibitors of human TRPML1 channel; TRPML1-inducible cells, Ca2+ dye fluorescence, FDSS; stronger effect = lower value; inhibition of EC80 agonist-evoked calcium signal; activity change, negative = inhibition, % (concentration not given with the values); actives 0.02% (n = 390,000); AID 624415; in the data active means activity change below about -50%; inconclusive means about -30% to -50%; inactive means above about -30%;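 also: stimulus is agonist 54-4 at its EC80 concentration; % is scaled to controls: 0 for no effect and ±100 for the full control effect; compound concentration not given in the record; the text of the record puts the active cut at -80%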
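Tet-induced TRPML1-DL cells loaded with Ca8 no-wash calcium dye were read kinetically on FDSS. Compound addition was followed by EC80 agonist 54-4 (4 uM final); inhibition was read over 110 s.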
ClpP mod – qHTS Assay for Activators of ClpP; ATP-dependent Clp protease proteolytic subunit (Bacillus subtilis (strain 168)), P80244; actives 1.9% (n = 340,000); purified B. subtilis ClpP, FRET peptide cleavage, 20 min; Potency, µM (doses to about 57.5 µM), for inactives: top-dose activity change, negative = active; active = well fitted falling curve with a large enough effect; inconclusive = small, poorly fitted or top-dose-only effect; inactive = no such curve, though single readings can be large or run the other way; also: potency is read from the fitted curve at half-maximal effect; the source files actives as falling curves though it sought activators and does not explain the sign; nearly all actives have a fitted effect of over 65% in size; many hits overshoot -100%
Target sequence (P80244 whole entry, looked up): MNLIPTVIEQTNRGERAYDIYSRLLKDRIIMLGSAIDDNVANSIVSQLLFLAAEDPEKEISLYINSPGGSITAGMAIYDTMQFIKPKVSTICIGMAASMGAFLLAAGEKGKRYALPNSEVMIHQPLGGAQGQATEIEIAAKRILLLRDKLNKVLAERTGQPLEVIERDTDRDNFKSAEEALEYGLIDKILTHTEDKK
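Purified B. subtilis ClpP, 10 microg/mL final in Tris/HCl pH8 with KCl, BSA, glycerol and Tween-20, cleaved an Abz/nitrotyrosine-quenched decapeptide. Fluorescence (ex 320, em 430) was read at 0 and 20 min at room temperature. Delta was normalized to 5.8 microM ADEP and DMSO/no-enzyme controls.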
Starred values were filed as active, the others as inactive; ? = inconclusive; . = not tested or not shown; [ ] = dose if it differs, or a comment. Hits appear at their usual frequency; 4.4% or so of the library scored in one or more.

cpd	SMILES	PINK1 modulator	ClpP mod	TRPV1 PAM	TRPML1 blocker	Menin-MLL FL inh	Sfp inh	TRPML1 ag
1	CCOC(=O)Cn1c(=O)n(CC2CCCO2)c2nc(-c3ccccc3Cl)nc(C(N)=O)c21 (configuration not stated)	-0.2%	-12%	.	-7	.	.	2.7
2	O=C(Nn1cnnc1)C(Sc1ccccc1)c1ccccc1 (configuration not stated)	14%[38.3 µM]	-0.1%	1	-5	0.1	-22%	0.3
3	CCOc1ccc(S(=O)(=O)N2CCN(C(=O)CCC(=O)N3CCOCC3)CC2)cc1	-0.9%	-2.6%	1	-1	.	.	-0.2
4	C[C@H](CO)N1C[C@H](C)[C@@H](CN(C)C(=O)Nc2ccccc2)Oc2c(NC(=O)c3ccncc3)cccc2C1=O	3.1%	0.9%	.	14	.	.	0.0
5	N#CC1c2ccccc2C=CN1C(=O)c1ccccc1 (configuration not stated)	0.0%	.	.	13	-2.9	13%	1.6
6	c1ccc(OCCOCCOc2ccccc2)cc1	-0.7%	.	.	-3	.	.	2.6
7	CC(C)COc1ccc(C2NC(=O)NC2=O)cc1 (configuration not stated)	1.3%	-2.9%	-16	3	0.8	17%	0.4
8	Cn1cc(-c2nnnn2-c2cccc(C(F)(F)F)c2)c(C(F)(F)F)n1	0.8%	-4.4%	-7	28	-2.9	15%	0.3
9	O=C(c1ccc2c(c1)OCO2)C1CCCN(C(=O)C2CCOCC2)C1 (configuration not stated)	-0.5%	.	2	6	2.3	12%	-0.2
10	CCOc1ccc(N(CC(=O)NCc2ccccc2OC)S(C)(=O)=O)cc1	-1.0%	0.3%	1	2	0.3	14%	0.4
11	CC(Oc1ccc(-c2nccc(-c3ccccn3)n2)cc1)C(=O)NN (configuration not stated)	0.6%	?	-31	50	5.5	13%	-0.4
12	COc1ccccc1C(=O)C1CCCN(C(=O)CCC(=O)c2ccccc2)C1 (configuration not stated)	1.1%	.	-15	4	-0.5	-1%	-0.8
13	COc1ccccc1C(=O)NC1(C(F)(F)F)C(=O)Nc2c1c(=O)[nH]c(=O)n2-c1ccccc1 (configuration not stated)	0.5%	-0.4%	.	4	.	.	-0.1
14	CN(C)/C=C/C(=O)c1ccc(F)cc1	-6.5%[38.3 µM]	0.7%	7	-14	26	-21%	-0.5
15	CCc1ccc(-c2nc(SCC(=O)NC3CCS(=O)(=O)C3)n[nH]2)cc1 (configuration not stated)	0.6%	-4.0%	2	-9	.	.	0.9
16	Cc1nc(C)c(-c2csc(Nc3ncccc3C)n2)s1	7.2%	-8.1%	-2	3	1.4	-12%	0.0
17	CN(C1CCS(=O)(=O)C1)S(=O)(=O)c1ccc(C2CCCCC2)cc1 (configuration not stated)	21%[38.3 µM]	-1.5%	-20	-6	-1.3	12%	0.5
18	CCCS(=O)(=O)c1nc(S(=O)(=O)c2ccc(C)cc2)c(NCc2ccccc2)s1	-0.3%	-4.8%	.	62	.	.	2.0
19	CSCCC(NC(=O)c1ccc(Cl)cc1)C(=O)OCC(=O)Nc1cc(Cl)ccc1C#N (configuration not stated)	0.5%	1.7%	4	-1	2.2	0%	3.8
20	Cc1csc(NC(=O)c2ccoc2C)n1	3.6%	-3.3%	4	7	8.1	-4%	0.4
21	COc1ccc(CN2CCC(n3nccc3NC(=O)CCc3ccccc3)CC2)c(C)c1C	-0.5%	-2.9%	-4	5	-3.0	-2%	-0.5
22	CCCc1n[nH]c2c1/C(=N/O)CC(c1ccccc1)C2 (configuration not stated)	-1.9%	0.2%	17	-15	1.7	-29%	-0.4
23	CC(C)CC(=O)Nc1ccc(C(=O)COC(=O)CN2C(=O)NC3(CCCCC3C)C2=O)cc1 (configuration not stated)	0.3%	-2.0%	21	-1	.	.	-0.1
24	CC(=O)N/C(=N\c1nc(C)cc(C)n1)Nc1ccc(Cl)cc1Cl	-0.4%	?	-7	-8	-15	11%	-0.8
25	CC1CCN(C(C(=O)O)c2ccccc2)CC1 (configuration not stated)	2.1%	.	13	9	1.6	5%	-0.9
26	CCc1ccc2oc(-c3cccc(NC(=O)c4cc5ccccc5o4)c3)nc2c1	-0.6%	?	.	-3	.	.	-0.1
27	O=C(O)c1ccc(NC(=O)c2ccccc2NC(=O)c2cccc(Br)c2)cc1	0.6%	?	11	-7	0.1	15%	-1.3
28	COc1ccc(-c2cn3c(n2)sc2cc(C(=O)Nc4cccc(SC)c4)ccc23)cc1	9.5%	4.4%	.	-6	.	.	-0.4
29	CC(=O)Nc1ccc(NC(=O)CSc2nnc(-c3cc4ccccc4o3)n2C)cc1	2.9%	.	5	1	.	2%	-0.2
30	COc1ccc(N2CCN(C(=O)c3ccc4c(c3)[nH]c(=S)n3c5ccccc5nc43)CC2)cc1	.	.	-5	.	0.1	16%	.

cpd	SMILES	PINK1 modulator	ClpP mod	TRPV1 PAM	TRPML1 blocker	Menin-MLL FL inh	Sfp inh	TRPML1 ag
31	CC(=O)c1ccc(OCc2cc(C(=O)N3CCC[C@H]3CO)no2)cc1	-0.9%	1.6%	10	22	.	11%	-0.3
32	Cn1c(=O)c2c(ncn2CC(=O)Nc2cc(S(=O)(=O)N3CCCCC3)ccc2Cl)n(C)c1=O	-0.3%	-3.3%	.	-15	.	.	0.1
33	Clc1nccnc1-c1ccccc1	-3.0%	-18%	5	11	1.3	7%	0.3
34	Cc1cc2ccccc2n1CCNCc1c(C(=O)N2CCOCC2)nc2ccccn12	5.8%	.	12	5	-2.7	-9%	1.2
35	COc1ccc(N2CCN(CC(=O)Nc3ccc(C)cc3)CC2)cc1	-1.0%	-5.5%	-14	20	-4.2	-6%	-1.2
36	COc1ccc(CCNC(=O)C2CCN(S(=O)(=O)c3ccc(OC)c(OC)c3)CC2)cc1OC	0.4%	-0.6%	4	5	?	-4%	-0.5
37	COc1cc(C2C(=O)N(C3CCCCC3)CC(=O)N2C2CCCC2)ccc1OC(C)C (configuration not stated)	2.7%	3.2%	.	-2	.	.	-0.3
38	COC(=O)CC1=NN(c2ccccc2)C(=O)C1	0.0%	.	11	-8	-0.4	?	2.3
39	CCCOC(=O)CC1C(=O)NCCN1Cc1ccc(F)cc1 (configuration not stated)	-0.3%	-0.3%	0	1	1.7	-2%	-0.3
40	COc1cc([N+](=O)[O-])cc(/C=N/NC(=O)CSc2nnc(-c3ccccc3)n2C)c1O	1.9%	.	-4	2	7.0	7%	0.6
41	O=C(NCc1cccc(C(F)(F)F)c1)N1CCN(S(=O)(=O)c2ccccc2F)CC1	2.0%	.	-12	-2	8.7	13%	-0.1
42	COc1ccccc1Cc1c(-c2ccco2)nc2ccc(Cl)cn12	10%	5.0%	.	.	.	.	-0.5
43	CC(=O)Oc1cc2c(C(=O)NCCN3CCOCC3)c(C)oc2c2ccccc12	0.3%	-0.4%	-1	9	-5.5	4%	-0.7
44	COC(=O)c1ccccc1NC(=O)C(C)Oc1ccccc1 (configuration not stated)	-0.5%	-5.3%	-5	12	-1.1	16%	0.6
45	O=C(N/N=C/c1ccco1)C1CCCC1	0.2%	-3.7%	-7	-19	.	13%	0.6
46	COC1=Nc2ccccc2N2CCN=C12	-0.2%	5.9%	.	.	.	.	-0.6
47	Cc1ccc(C(=O)OCC(=O)Nc2ccc3c(c2)OCO3)c(O)c1	4.1%	-22%	3	10	.	.	1.1
48	N#CC1=C(N)OC2=C(C(=O)CCC2)C1c1cc2c(cc1Br)OCO2 (configuration not stated)	0.5%	-0.7%	-2	?	0.0	3%	-0.4
49	Cc1nc2ccccc2c(=O)n1/N=C/c1cccnc1	-3.3%	-1.2%	-5	20	-1.2	5%	-0.3
50	CCOc1ccc(/C=N/NC2=NCCCCC2)cc1	0.6%	.	-4	4	-5.8	4%	0.3
51	CC12CC(NC(=O)N1c1ccc(C(=O)N3CCN(c4ccccn4)CC3)cc1)c1ccccc1O2 (configuration not stated)	.	.	0	.	2.2	-1%	.
52	COc1ccccc1N(C)S(=O)(=O)c1ccc(C(=O)Nc2ccc3nc(C)sc3c2)cc1	0.8%	-4.3%	-13	43	11	8%	3.5
53	O=C(COc1cccc(Cl)c1Cl)NC1CC1	0.7%	-0.2%	.	29	.	.	-1.3
54	Cc1ccccc1OCCC(=O)Nc1cc(S(=O)(=O)N2CCCCC2)ccc1N1CCN(C)CC1	10.0%	1.0%	.	7	.	.	21
55	Cc1cc(C)c(C(=O)N2CCCC(N3CCN(c4cccc(C(F)(F)F)c4)CC3)C2)o1 (configuration not stated)	0.4%	-1.0%	1	-11	1.3	9%	0.3
56	CCc1ccccc1N(CC(=O)NC1CCCC1)C(=O)CNC(=O)c1cccs1	0.5%	99%	2	-15	0.7	2%	-0.3
57	CN(CCCC(=O)NCc1ccccc1)S(=O)(=O)c1ccc([N+](=O)[O-])cc1	1.3%	-0.6%	-4	-2	1.5	8%	0.2
58	COc1ccc(/C(C)=N/NC(=O)CNC(=O)c2ccncc2)c(OC)c1	0.0%	-3.2%	5	4	-2.7	2%	-0.3

Three entries already listed, arranged by their value in Menin-MLL FL inh, lowest first:
no.	Compound	Menin-MLL FL inh
43	CC(=O)Oc1cc2c(C(=O)NCCN3CCOCC3)c(C)oc2c2ccccc12	-5.5
38	COC(=O)CC1=NN(c2ccccc2)C(=O)C1	-0.4
39	CCCOC(=O)CC1C(=O)NCCN1Cc1ccc(F)cc1 (configuration not stated)	1.7

Compound activity from PubChem BioAssay.
